Compound activity as filed in PubChem BioAssay.
Six1-Eya2 blk = qHTS Assay for Inhibitors of the Six1/Eya2 Interaction; Homeobox protein SIX1 (Homo sapiens) + Protein phosphatase EYA2 (Homo sapiens), …; AlphaScreen GST-Six1/His-Eya2 binding, biochemical; stronger effect = lower value; control for the full effect not named in the record; AID 651725, 2012; actives 0.56% (n = 360,000); activity change, % (test concentration not listed); in the data active = activity change below about -65%; inconclusive = about -30% to -65%; inactive = above about -30%; further: on the % scale 0 is the no-effect control and ±100 the full control effect; compound concentration not given in the record
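Homogeneous AlphaScreen proximity assay pairing GST-Six1 with His-tagged Eya2 (added as 5X mix: 250 nM and 500 nM) in 50 mM Tris pH 8.0, 300 mM NaCl, 1 mM TCEP. Glutathione donor and nickel acceptor beads; 1 h, 37 °C, dark.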
D2 agonist = Beta-Arrestin HTS for Positive Allosteric Modulators of the Human D2 Dopamine Receptor: Agonists; DiscoveRx PathHunter D2 beta-arrestin, luminescence, 90 min; 100% = 57 uM dopamine signal; actives 0.084% (n = 360,000); activation, % (test concentration not listed); in the data active = activation above about 40%; inconclusive = about 15% to 40%; inactive = below about 15%; further: compound concentration not given in the record; the text of the record calls up to 30% inactive
Target sequence (P14416 whole entry, looked up): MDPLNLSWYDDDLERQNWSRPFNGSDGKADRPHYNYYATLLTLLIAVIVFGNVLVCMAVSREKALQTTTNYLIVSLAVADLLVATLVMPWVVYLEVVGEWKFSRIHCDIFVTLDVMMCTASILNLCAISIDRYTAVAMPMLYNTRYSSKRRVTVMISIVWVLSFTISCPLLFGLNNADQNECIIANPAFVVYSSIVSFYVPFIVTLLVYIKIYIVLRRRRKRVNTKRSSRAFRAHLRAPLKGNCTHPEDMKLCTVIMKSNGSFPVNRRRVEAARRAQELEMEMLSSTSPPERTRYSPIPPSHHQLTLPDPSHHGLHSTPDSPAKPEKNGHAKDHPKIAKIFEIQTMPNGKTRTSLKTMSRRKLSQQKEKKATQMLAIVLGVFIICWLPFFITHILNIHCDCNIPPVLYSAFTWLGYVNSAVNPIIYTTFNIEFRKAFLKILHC
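Agonist mode: compounds alone added to overnight-plated D2 PathHunter cells for 90 min at 37 C, with 57 uM final dopamine (EC100) defining full response. Beta-arrestin recruitment detected by chemiluminescent reagent, read after 1 h at ambient temperature.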
gsp ag = qHTS for Agonist of gsp, the Etiologic Mutation Responsible for Fibrous Dysplasia/McCune-Albright Syndrome: qHTS; gsp mutant cells, cAMP HTRF, 30 min; control for the full effect not named in the record; Potency, µM (highest dose often 76.9 µM), inactives show top-dose activation (cAMP increase), hits mostly activators; actives 0.13% (n = 340,000); AID 624287, 2012; active = well fitted activation curve with a large enough effect; inconclusive = small, poorly fitted or top-dose-only effect, or another doubt; inactive = no such curve, though single readings can be large or run the other way; cell line not stated here;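 further: phosphodiesterase inhibitor Ro 20-1724 added with compounds to block cAMP breakdown; potency means the concentration at half of the fitted maximal effect; nearly all actives have a fitted effect of over 60% in size; about a fifth of the inactives were tested at one dose only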
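Cells stably selected in G418 were plated at 2000/well, grown 16-24 hr, then given compounds in DMSO with the PDE inhibitor […] (300 uM solution added) for 30 min at 37C; cAMP was read by HTRF.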
CtBP-E1A inh = qHTS Assay for Inhibitors of the CtBP/E1A Interaction; CtBP / adenovirus E1A interaction (AlphaScreen); AlphaScreen GST-E1A/His-CtBP binding, 1536-well; stronger effect = lower value; control for the full effect not named in the record; activity change, % (concentration not given with the values); actives 0.49% (n = 340,000); AID 651724, 2012; in the data active means activity change below about -65%; inconclusive means about -30% to -65%; inactive means above about -30%; further: on the % scale 0 is the no-effect control and ±100 the full control effect
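Protein mix (5X: 125 nM each GST-E1A, His-CtBP) was incubated with pinned compound 2 h at 37 deg C in dark, in 50 mM Tris pH 8.0 buffer with 300 mM NaCl. Glutathione donor and nickel acceptor beads followed; AlphaScreen signal read after 1 h.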
D2 PAM = Beta-Arrestin HTS for Positive Allosteric Modulators of the Human D2 Dopamine Receptor: Potentiators; D(2) dopamine receptor (Homo sapiens), P14416; DiscoveRx D2 beta-arrestin cells, luminescence, 90 min; 100% = 57 uM dopamine signal; potentiation, % (no concentration beside the values); actives 0.23% (n = 360,000); active = potentiation of 50% or more; inconclusive = 30% to 50%; inactive = 30% or less;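 further: compound concentration not given in the record; tested on top of an EC20 dose of dopamine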
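PathHunter beta-arrestin assay in DiscoveRx D2 cells. Compounds were added with an EC20 of dopamine (50 nM final) for 90 min at 37 deg C. Luminescence was read 1 h after detection reagent, with 57 uM dopamine as the EC100 control.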
gsp antag = qHTS for Antagonists of gsp, the Etiologic Mutation Responsible for Fibrous Dysplasia/McCune-Albright Syndrome: qHTS. Potency, µM (doses to about 76.9 µM), for inactives: at the top dose activity change, negative = inhibition, hits mostly inhibitors. gsp-mutant cells, cAMP HTRF, 30 min; control for the full effect not named in the record. actives 0.4% (n = 340,000). AID 624288, 2012; active = falling curve of any shape with a large fitted effect; inconclusive = falling curve, mostly with a smaller effect; inactive = flat or rising curve; cell line not stated here;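 further: intracellular cAMP measured with PDE inhibitor Ro 20-1724 present during compound exposure; potency means the concentration at half of the fitted maximal effect; on the % scale 0 is the no-effect control and ±100 the full control effect; nearly all actives have a fitted effect of over 65% in size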
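G418-selected cells were plated in DMEM/10% FBS for 16-24 h at 37C, then treated with compounds plus the PDE inhibitor […] (300 uM solution added) for 30 min at 37C. Intracellular cAMP was measured by HTRF after 30 min lysis at room temperature.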
Starred values were filed as active, the others as inactive; ? = inconclusive; . = not tested or not shown; & = joins results of further samples; [ ] = remark or other dose.

Six1-Eya2 blk,D2 agonist,gsp ag,CtBP-E1A inh,D2 PAM,gsp antag,molecule
6,-1.4,-16%,-2,15,8%,CN1CCN(C2CC(=O)N(c3ccc4c(c3)OCCO4)C2=O)CC1 (centres undefined)
-7,-7.6,-14%,-1,-12,-4%,COCCCNC(=O)c1cn(CCOC)c(=O)c2c1c1ccccc1n2C
-22,3.8,.,-21,0,.,c1ccc(OCCNc2ccn3nc(-c4ccco4)cc3n2)cc1
2,-1.8,18%,-9,-10,8%,O=C(NCc1ccccn1)c1ccc(OC2CCN(Cc3ccccc3O)CC2)cc1
-17,-1.8,-9%,-2,4,3%,CSc1nc(-c2ccccc2)c(-c2ccccc2)[nH]1
4,-1.5,31%,5,-7,5%,Cc1ccc(COc2ccsc2-c2n[nH]c(=S)n2C)cc1
0,-2.3,.,3,-4,-11%,C=CC[C@@H](CC(=O)N(CCO)Cc1ccccc1)C(=O)N[C@@H](C)COC(=O)[C@@H](CC=C)Cc1ccc(F)cc1
8,-1.6,4%,.,-8,1%,COc1ccccc1Cn1c(=S)[nH]c2cc(C(=O)N3CCN(c4ccccc4OC)CC3)ccc2c1=O
5,-4.4,-4%,-7,-1,1%,CN(C(=O)c1cccc(NC(=O)c2cccs2)c1)c1ccccc1
-11,-2.5,6%[15.4 µM],-2,-2,-32%,CCCC(C)c1nnc(NC(=O)CCS(=O)(=O)c2ccccc2)s1 (centres undefined)
-1,0.5,11%,1,0,0%,Cc1cc(C)n(-c2nc(C)nc3sc4c(c23)CCC(C)C4)n1 (centres undefined)
0,8.5,-4%,2,0,-17%,O=[N+]([O-])c1ccccc1S(=O)(=O)Nc1ccc(S(=O)(=O)N2CCCC2)cc1
8,2.7,-2%[15.4 µM],5,-2,-4%,Cc1cc(C)c(S(=O)(=O)Cc2ccccc2)c(Cl)n1
-4,-0.1,1%,45,-13,-13%,CN(C)c1ccc(-c2nc3ccccc3n2C)cc1
-1,-1.0,0%,-7,-8,0%,CC(Sc1ncnc2sccc12)C(=O)Nc1ccc(S(=O)(=O)N2CCOCC2)cc1 (centres undefined)
10,2.3,-6%,1,-7,8%,O=C(O)[C@@H]1CCCN1C(=O)c1ccco1
-7,-4.9,-2%,-6,-23,4%[15.4 µM],Cc1cc(C)c(C#N)c(SCc2ccccc2C(=O)O)n1
-5,-3.4,8%,-12,-16,-1%,COc1ccccc1N1CCN(C(CNS(=O)(=O)c2cccs2)c2cccnc2)CC1 (centres undefined)
4,2.0,14%,5,5,5%,COCCn1c(SCC(=O)Nc2ccc(C)cc2)nc2c(oc3ccccc32)c1=O
0,-1.1,.,-19,-55,-2%,CCOC(=O)[C@@H]1[C@H]2COc3cc(OC)ccc3[C@@H]2N2C(=O)N(c3ccc(C)cc3)C(=O)[C@]12C
0,0.6,3%,-8,-2,11%,COC(=O)C1CCN(C(c2cc(OC)c(OC)c(OC)c2)c2sc3nc(C)nn3c2O)CC1 (centres undefined)
-2,-1.3,-31%[inhibitor],6,-8,-3%,CSc1ccccc1NC(=O)c1ccccc1N(C)S(C)(=O)=O
1,-3.9,-11%,8,-8,0%,CSc1ccc(S(=O)(=O)Nc2c(C)n(C)n(-c3ccccc3)c2=O)cc1
-3,-2.1,-1%,7,-3,9%,CCS(=O)(=O)N1CCC(NC(=O)C(Cc2cc(OC)ccc2OC)NC(C)=O)CC1 (centres undefined)
1,-2.0,-50%[inhibitor],-2,-3,-26%,Cc1ccc(C(=O)Nc2ccccc2C(=O)NC(C(=O)O)C(C)C)cc1 (centres undefined)
2,-2.9,-9%[15.4 µM],2,1,6%,Cc1ccc(N2C(=O)C3NN=C(C(=O)OCc4ccccc4)C3C2=O)cc1 (centres undefined)
1,2.6,-36%[inhibitor],6,-2,5%,C=CCn1c(CCCNC(=O)C(C)(C)C)nc2ccccc21
-8,0.4,-4%,-10,-7,-3%,Clc1ccccc1CN1CCN(/N=C/c2ccncc2)CC1
-6,4.9,1%[15.4 µM],6,-11,-6%,CC(C)(C)SCCNC(=O)/C=C/c1ccccc1
1,-1.0,2%,6,-2,3%,CCCc1cc(=O)[nH]c(/N=C(\N)Nc2ccccc2)n1
-14,-8.6,4%,-14,-15,-34%,CC(C)Cn1nc(NS(=O)(=O)c2cccc3nonc23)c2cc3ccccc3nc21
-7,8.9,-3%[15.4 µM],.,-4,-8%,COc1ccccc1NS(=O)(=O)c1cc(NC(=O)CC(C)(C)C)ccc1N1CCOCC1
-9,1.5,-16%,.,-11,6%,O=C(CN1CCN(S(=O)(=O)c2ccc(Cl)cc2)CC1)c1ccc(O)c(O)c1
4,-4.8,2%,10,-3,1%,CC1(C)Oc2ccc3ccc(=O)oc3c2CC1O (centres undefined)
8,-0.1,4%,.,1,10%,Cc1cc(C)nc(NC(=O)Nc2ccc3c(c2)OCO3)c1
2,-2.3,?,3,-4,-7%,COc1cccc(NC(=O)CN(C)C(=O)Cc2cccc3ccccc23)c1

Results in Six1-Eya2 blk and D2 agonist, for some of the entries so far:
| compound | Six1-Eya2 blk | D2 agonist |
| --- | --- | --- |
| Clc1ccccc1CN1CCN(/N=C/c2ccncc2)CC1 | -8 | 0.4 |
| CCCc1cc(=O)[nH]c(/N=C(\N)Nc2ccccc2)n1 | 1 | -1.0 |

Carrying on:
Six1-Eya2 blk,D2 agonist,gsp ag,CtBP-E1A inh,D2 PAM,gsp antag,molecule
-11,-5.1,?,-7,-6,-14%,Cc1ccnc(SCc2cc(=O)c(OC(=O)c3cc([N+](=O)[O-])ccc3Cl)co2)n1
3,-2.1,-6%[15.4 µM],-4,4,-4%,CCOc1ccc(NC(=S)N2CCN(S(=O)(=O)c3ccccc3)CC2)cc1
2,-0.5,-42%[inhibitor],5,-8,?,Cc1cccc(OCCCC(=O)Nc2ccc(S(N)(=O)=O)cc2)c1C
0,-5.1,7%,.,-18,5%,Cc1onc(-c2ccccc2)c1C(=O)/C=C/N(C)C
-14&4,5.2,-11%[15.4 µM],.,-10,-24%,Cc1[nH]c2ccccc2c1/C=N/NC(=O)c1cccc([N+](=O)[O-])c1
-4,-6.5,0%[15.4 µM],-19,-8,12%,COc1cccc(C(=O)COc2ccc3c(C)c(Cc4ccccc4)c(=O)oc3c2)c1
3,0.3,-11%,.,4,-3%,CCOc1ccc(-n2c(=O)c3sccc3n(CC(=O)Nc3cccc(OC)c3)c2=O)cc1
7,6.2,-21%,7,7,-1%,Cc1nnc(Nc2ccc(C(=O)O)cc2)[nH]c1=O
-4,4.1,.,-2,-2,.,CCc1nc2c(OCc3ccccc3)cccn2c1N(C)C(=O)c1ccc(OC)cc1
-1,11,14%[15.4 µM],5,-8,4%,O=C(N/N=C/c1ccco1)c1cc(-c2ccc(Cl)cc2)n[nH]1
2,0.4,-86%[inhibitor],7,-1,3%,CCOC(=O)C1=C(C)NC(C)=C(C(=O)OCC)C1C(=O)OCC(=O)N1CCc2ccccc2C1
6,-0.2,9%,-4,-2,-8%,O=C(NCC1CCCN1S(=O)(=O)c1cccs1)C(=O)Nc1cccc(F)c1 (centres undefined)

Copied from the results shown, 4 compounds:
Six1-Eya2 blk,D2 agonist,gsp ag,CtBP-E1A inh,D2 PAM,gsp antag,molecule
-4,4.1,.,-2,-2,.,CCc1nc2c(OCc3ccccc3)cccn2c1N(C)C(=O)c1ccc(OC)cc1
-1,11,14%[15.4 µM],5,-8,4%,O=C(N/N=C/c1ccco1)c1cc(-c2ccc(Cl)cc2)n[nH]1
2,0.4,-86%[inhibitor],7,-1,3%,CCOC(=O)C1=C(C)NC(C)=C(C(=O)OCC)C1C(=O)OCC(=O)N1CCc2ccccc2C1
6,-0.2,9%,-4,-2,-8%,O=C(NCC1CCCN1S(=O)(=O)c1cccs1)C(=O)Nc1cccc(F)c1 (centres undefined)

More structures:
Six1-Eya2 blk,D2 agonist,gsp ag,CtBP-E1A inh,D2 PAM,gsp antag,molecule
-2,2.6,?,0,-16,9%,O=C1c2ccccc2-c2cccc(C(=O)N3CCCCCC3)c21
-9,-4.2,-1%,-18,1,-16%,COc1ccc(C2c3cc(OC)c(OC)cc3CCN2C(=O)c2ccccc2Br)cc1OC (centres undefined)
7,-2.0,4%,-9,-5,-3%,Cc1ccc2c(c1)N(CC(=O)Nc1ccccc1F)C(=O)C(C)O2 (centres undefined)
-3,-3.3,.,-6,1,-15%,CCCCc1cc(=O)oc2cc(C)cc(OCC(=O)NCC3CCC(C(=O)O)CC3)c12 (centres undefined)
5,-2.1,-27%,15,-4,10%,CCOc1ccc(NC(=O)CN2C(=O)NC3(CCCCCC3)C2=O)cc1
1,-2.3,.,2,4,2%,Nc1nnc(-c2cccc(Cl)c2Cl)c(N)n1
-13,-0.7,-8%[15.4 µM],13,1,6%,C/C=C/C=C/C(=O)Nc1nccs1
-17,-4.7,-20%[15.4 µM],0,-2,-1%,CC(Sc1nnc(CN2CCCC2)n1Cc1ccccc1)C(=O)Nc1ccc(F)cc1Cl (centres undefined)
-3,-0.6,14%,5,-2,5%,CC(=O)Nc1ccc(S(=O)(=O)N2CCN(S(=O)(=O)N3CCOCC3)CC2)cc1
-3,-4.6,-10%,.,-7,14%,CN(C)CCNC(=S)Nc1ccc(Cl)cc1Cl
-2,-1.1,4%,9,-6,-1%,CC(C)(C)CC(C)(C)SSc1n[nH]c(=S)s1
-1,-4.4,-20%,1,-40,1%,CC(/C=N\NC(=O)c1ccc2c(c1)OCO2)c1ccccc1 (centres undefined)
30,-2.5,5%[15.4 µM],2,-15,3%,COc1ccc(C(CNC(=O)Cc2ccccc2)N2CCCCC2)cc1 (centres undefined)
-4,-0.7,-18%,-3,-33,10%,COc1ccc(C(CNC(=O)c2cccc(NC(=O)c3cccs3)c2)N2CCCC2)cc1 (centres undefined)
-19,1.5,1%,-6,-19,-10%,CCOC(=O)C(=O)C1=C(N2CCOCC2)/C(=C\c2ccc(F)cc2)CC1
-4,-1.5,-1%,1,-15,3%,Cc1cc(O)c(C2=Nc3ccccc3SC(c3ccc(Cl)cc3)C2)c(=O)o1 (centres undefined)
8,-2.0,?,-7,-6,15%,CCn1cc(C(=O)NCCCN2CC(C)CC(C)C2)c2cc(OC)c(OC)cc2c1=O (centres undefined)
0,-0.4,17%[15.4 µM],4,-5,-13%,CCC(C)(C)c1nnc(NC(=O)C2CC(=O)N(CCc3ccc(F)cc3)C2)s1 (centres undefined)
-1,-2.0,-3%,4,11,4%,CCc1nnc(NC(=O)NCN2C(=O)C3C4C=CC(C4)C3C2=O)s1 (centres undefined)
